Source: PubChem (National Center for Advancing Translational Sciences (NCATS))
VDR inh: blocks the human vitamin D receptor | AID 504847 | VDR-SRC2-3 peptide fluorescence polarization, 2 h | Potency, µM, without a hit: max response, negative = inhibition, most hits filed as inhibitors | 400,000 compounds, 0.93% hits; active = well fitted inhibition curve with a large enough effect; inconclusive = small, poorly fitted or top-dose-only effect, or another doubt; inactive = no such curve, though single readings can be large or run the other way; note: series mostly up to about 120 µM
Target sequence (P11473 whole entry, looked up): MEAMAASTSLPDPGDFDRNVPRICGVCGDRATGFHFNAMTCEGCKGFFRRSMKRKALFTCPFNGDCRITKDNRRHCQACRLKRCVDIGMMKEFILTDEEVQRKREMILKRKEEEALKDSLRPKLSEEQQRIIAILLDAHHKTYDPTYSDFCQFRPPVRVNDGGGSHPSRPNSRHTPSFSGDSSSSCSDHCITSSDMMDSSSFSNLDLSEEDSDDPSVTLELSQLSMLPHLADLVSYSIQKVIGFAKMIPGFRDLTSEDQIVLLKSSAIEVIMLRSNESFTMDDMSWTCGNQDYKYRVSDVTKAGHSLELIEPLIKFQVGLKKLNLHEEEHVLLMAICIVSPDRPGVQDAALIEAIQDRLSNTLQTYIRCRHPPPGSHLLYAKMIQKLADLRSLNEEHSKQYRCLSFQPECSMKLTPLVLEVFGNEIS
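FP read-out; VDR + SRC2-3 coactivator peptide; 23 nl compound by pintool; 2 h RT incubation; reagents held at 4 deg C, protected from light.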
Active calls of the source: *; ? = inconclusive; & = joins results of further samples. % is set by controls: 0 for no effect and ±100 for the full control effect; potency is the fitted concentration of half-maximal effect. This is a subset; rates above refer to the full screens.

Structure	VDR inh
CC1CCN(c2cc(N(C)CCO)c([N+](=O)[O-])c3nonc23)CC1	-10%
O=c1c2c3c(sc2nc(NCCOCCO)n1Cc1ccco1)CCCCC3	-2%
CCCNC(=O)NC(=O)CSc1nnc(-c2c[nH]c3ccccc23)o1	5%
C=CCN(c1ccc(Cl)cc1)S(=O)(=O)c1cccc(C(=O)OCC(=O)N(C)C)c1	-12%
CCN1C(=O)c2ccccc2S(=O)c2ccc(C(=O)N3CCN(c4cccc(C)c4)C(C)C3)cc21 (stereo unspecified)	-10%
C/C(=C\C=C\c1ccccc1)C(=O)c1c(C)cc(C)[nH]c1=O	10%
Cc1ccn2cc(-c3cccc([N+](=O)[O-])c3)nc2c1	1%
CCOc1ccccc1CNC(=O)CCCn1ccc2cc(S(=O)(=O)N3CCCC3)ccc21	0%&12%
COc1cc(/C=C/C(=O)OCC(=O)c2ccc(S(=O)(=O)N3CCCCC3)cc2)cc(OC)c1OC	-4%
Cc1c(C(=O)O)cc(C(C)(C)C)n1CCSCCO	0%
Cc1cc(Cl)ccc1C(=O)C1CCCN(C(=O)CN2CCOC2=O)C1 (stereo unspecified)	13%
Cc1ccc(NC(=S)NNC(=O)c2nn(C)cc2Cl)cc1	9%
NS(=O)(=O)c1ccc(Cl)c(S(N)(=O)=O)c1	-1%&-14%
Cc1cc(C)nc(NS(=O)(=O)c2ccc(NC(=O)Cc3ccccc3)cc2)n1	-11%
Cc1ccc(F)cc1NC(=O)C1CC(=O)N(CCc2ccccc2)C1 (stereo unspecified)	-4%
COc1ccc(CNC(=O)C(=O)NCC(c2cccs2)S(=O)(=O)c2cccs2)cc1 (stereo unspecified)	0%
COc1ccc(-n2c(=O)c3c4c(sc3n(Cc3cc(C)ccc3C)c2=O)CN(C(C)=O)CC4)c(OC)c1	-6%
COc1ccc(C(=O)Nc2ccccc2C(=O)OCc2cc(=O)n3nc(C4CC4)sc3n2)cc1	-3%
NC(=O)c1ccc(NC(=O)c2cc(S(=O)(=O)N3CCCCC3)ccc2N2CCOCC2)cc1	-28%
CCOC(OCC)P(=O)(O)CCCNCc1ccc(Cl)c(Cl)c1	-12%&6%
Cc1ccc(S(=O)(=O)N2CCN(C(=O)COC(=O)c3cccnc3Cl)CC2)c(C)c1	-11%
O=[N+]([O-])c1ncccc1OCc1ccc(-c2ccccc2)cc1	-21%
CCn1c(SCC(=O)NCc2ccccc2)nnc1-c1cccnc1	-4%
CCCCNC(=O)C(CC)Sc1nnc(-c2ccc(F)cc2)c(-c2ccc(F)cc2)n1 (stereo unspecified)	2%
CC(C)(C)c1ccc(S(=O)(=O)N2CCN(C(=O)C3CCC3)CC2)cc1	-10%
C[C@]12C[C@@](C)(C=C1/C=C/c1ccc(C(F)(F)F)cc1)C(=O)C[C@H]2c1ccc(C(F)(F)F)cc1	2%
CCOc1cc2c(cc1OCC)C(c1ccc(OC)c(OC)c1)N(c1ccc(C(=O)O)cc1)C(=O)C2 (stereo unspecified)	-10%
Cc1ccc(C(=O)COC(=O)c2cccc(NC(=O)c3ccc(Br)cc3)c2)cc1	-19%
O=C(NCc1ccc(F)cc1)C(=O)NCC(c1ccco1)N1CCOCC1 (stereo unspecified)	-10%
CCOc1ccc(C(C)=O)cc1CN1C(=O)NC2(CCCCCC2)C1=O	3%
Cc1cc(N2CCN(C)CC2)nc2ccc(NC(=O)c3ccc4c(c3)OCO4)cc12	-7%
COc1ccccc1-c1nnc(NC(=O)OCC(C)C)s1	0%
Cc1nn(CC(=O)Nc2ccc(Cl)c(S(=O)(=O)N(C)C)c2)c(C)c1[N+](=O)[O-]	-13%
COCCNC(=O)c1cnn2c(C(F)F)cc(-c3ccccc3)nc12	-12%
CCC1CCCCN1C(=O)COC(=O)COc1ccc(Br)cc1 (stereo unspecified)	-21%
Cc1cc(C)c2cc(C(=O)N3CCC(Cc4ccccc4)CC3)[nH]c2c1	5%
Cc1cccc(C2CN(C)CCc3c2cc(O)c(O)c3Cl)c1 (stereo unspecified)	-1%&-25%
COc1ccc(OC)c(N(CC(=O)NCc2ccccc2)S(=O)(=O)c2ccccc2)c1	9%
C=CCN1C(=O)c2ccccc2Sc2ccc(C(=O)NCC(OC)OC)cc21	-8%
C=CCn1c(SCC(=O)c2cccs2)nc2sc(C)cc2c1=O	-28%
Cc1nc2ccccc2nc1Nc1cccc(Cl)c1	18%
COc1ccccc1C(=O)OCC(=O)NC(C)CCc1ccccc1 (stereo unspecified)	-16%
O=C(NC1CCN(Cc2ccccc2)CC1)c1cc(S(=O)(=O)N2CCOCC2)ccc1Cl	0%
COCCNC(=O)[C@@]1(Cc2ccccc2)C=C[C@@H](C)N1C(C)=O	11%
S=C(NCC(c1ccco1)N1CCCC1)Nc1ccccc1 (stereo unspecified)	-9%
C/C(CC(=O)Nc1ccc(C)c(Cl)c1)=N\NC(=O)Cc1cnc(N)s1	20%
Cc1ccc(C(=O)c2cn(Cc3ccccc3)c3ccccc3c2=O)cc1	?
O=C(CC(=O)N/N=C/c1c(F)cccc1Cl)NCCc1ccccc1	-6%
Cc1ccc(NC(=O)COC(=O)CN2C(=O)C3CCCCC3C2=O)cc1S(=O)(=O)N1CCOCC1 (stereo unspecified)	0%
CCOC(=O)N1CCN(C(=O)c2ccc3nc(-c4ccccc4)c(-c4ccccc4)nc3c2)CC1	-3%
Cc1cc(S(=O)(=O)N2CCN=C2c2ccccc2)ccc1F	-17%
N#Cc1cc(-c2ccccc2)[nH]c1-c1nccc2ccccc12	-5%
Cc1cnnc2c1-c1nonc1CC2	-11%
O=C(Nc1ccc(S(=O)(=O)Nc2ncccn2)cc1)c1cccc(Br)c1	-5%
Cc1ccc(S(=O)(=O)N(C)c2ccc(OC(=O)c3ccc(N4CCCC4=O)cc3)cc2)cc1	2%
Cc1ccc(-c2[nH]c3ccccc3c2SCCNC(=O)c2ccc(S(=O)(=O)N(C)C)cc2)cc1	-7%
O=C(Cc1ccc(-c2ccccc2)cc1)NC(c1ccccc1)c1ccccc1	-26%
Cc1cc(C)c(S(=O)(=O)N(CC(=O)O)C2CCCCC2)c(C)c1	5%
Cc1ccc(C(=O)NC2CC3CCC(C2)N3C)cc1 (stereo unspecified)	2%
CC(C)CCC(O)(CCC(C)C)C(=O)NNc1ccccc1	5%

Continued:
Structure	VDR inh
CC(=O)c1ccc(N2CCN(C(=O)C3CCCN(S(=O)(=O)c4ccc(Br)s4)C3)CC2)cc1 (stereo unspecified)	-14%
CC(=O)c1ccc(NC(=O)N2C3CCC2CC(O)(c2cccnc2)C3)cc1 (stereo unspecified)	0%
CCOC(=O)c1cnn(-c2cccc(Cl)c2)c1C1CCN(C(=O)OC(C)(C)C)CC1	-11%
CCCn1cnc2c(=O)oc3ccccc3c21	11%
COc1ccccc1C(C[N+](=O)[O-])c1c(N)n(C)c(=O)n(C)c1=O (stereo unspecified)	?
CCCN(C(=O)c1c(CC)noc1C)c1c(N)n(Cc2ccccc2)c(=O)[nH]c1=O	13%
CC(=O)c1csc(COc2ccccc2)n1	-10%
O=C(CSc1nnnn1-c1ccccc1)Nc1ncc(Cc2cc(Cl)ccc2Cl)s1	9%
COc1cccc(C(=O)Nc2cccc(OCC(=O)O)c2)c1	4%
CCC(=O)N1N=C2CC(C)(C)OCC2C1c1ccccc1 (stereo unspecified)	-10%
O=C(NC1CCCCCC1)C1Cc2ccccc2CN1C(=O)c1ccco1 (stereo unspecified)	-1%
Cn1cc(C[C@H](NC(=O)OC(C)(C)C)C(=O)N[C@@H](CO)Cc2ccccc2)c2ccccc21	-7%
CN1CCN(c2nc(-c3ccccn3)nc3ccccc23)CC1	-6%
CC1(C)CC[C@]2(C(=O)O)CC[C@]3(C)C(=CCC4[C@@]5(C)CC[C@H](O)C(C)(C)C5[C@H](O)C[C@]43C)[C@@H]2C1 (stereo partly specified)	1%
COc1cccc(Cn2c(=O)c(C)nc3cnc(N4CCN(C)CC4)nc32)c1	-15%
CCN(CC(=O)Nc1c(F)cccc1F)C(=O)c1ccc(-c2ccccc2)cc1	3%
O=[N+]([O-])c1cccc(-c2nnc(-c3ccc4c(c3)OCO4)o2)c1	-5%
Cc1cc(C)nc(N(C#N)CC(=O)Nc2ccccc2)n1	-7%
COc1ccc(OC)c(NC(=O)COC(=O)c2ccc(OC)c(S(=O)(=O)N3CCCC3)c2)c1	5%
O=[N+]([O-])c1cc(C(F)(F)F)ccc1NCC1CCCO1 (stereo unspecified)	79µM*
CC(=O)N1CCN(C(=S)NCc2ccccc2)CC1	1%
O=C(CSc1nc(-c2ccc(F)cc2)[nH]c1-c1ccccc1)Nc1ccccc1	5%
Cc1ccc(C2=NCCn3nc4cc(C(F)(F)F)ccc4c32)cc1	-1%
COc1ccc(C2c3ccc4ccccc4c3Oc3ncn(CCN4CCOCC4)c(=N)c32)cc1OC (stereo unspecified)	-1%
O=C(c1cccc(N2C(=O)C3CC=CCC3C2=O)c1)N1CCCc2ccccc21 (stereo unspecified)	2%
COC(=O)c1c(NS(=O)(=O)c2ccccc2)csc1C	-2%
CCOc1ccc(C(=O)NCCc2csc(-c3cccc(F)c3)n2)cc1OCC	12%
O=C(Cc1ccsc1)NCC(=O)Nc1ccc(F)c(F)c1	0%
COc1cc2c(cc1OC)CN(S(=O)(=O)c1ccc3c(c1)OCCO3)CC2	-6%
O=C(C1CC(=O)N(c2ccccc2)C1)N1CCCCCC1 (stereo unspecified)	20%

Marked active in VDR inh, of those listed so far:
Structure	VDR inh
O=[N+]([O-])c1cc(C(F)(F)F)ccc1NCC1CCCO1 (stereo unspecified)	79µM*

Some of the entries above, set out differently:
> Cc1ccc(C2=NCCn3nc4cc(C(F)(F)F)ccc4c32)cc1
  VDR inh: -1%

> COc1cc2c(cc1OC)CN(S(=O)(=O)c1ccc3c(c1)OCCO3)CC2
  VDR inh: -6%

Additional records follow.
Structure	VDR inh
COc1cccc(-c2csc(N3CCN(CC(=O)Nc4ccc5c(c4)OCO5)CC3)n2)c1	8%
COc1ccc(CCNC(=O)c2cccc(Br)c2)cc1OC	-9%
Cc1ccccc1NC(=O)Nc1cnccn1	-15%
COc1c(Cl)cc(Cl)cc1/C=N/NC(=O)c1nnn(-c2nonc2N)c1CN1CCC(C)CC1	-17%
CCCc1nc(C)cc(N2CCN(c3ccccc3)CC2)n1	-12%
Oc1ccc(Br)cc1/C=N/n1c(-c2ccccc2)n[nH]c1=S	-17%
O=C(Cn1cnc2ccccc2c1=O)NCc1cccs1	-11%
Cc1cc(C)c(OC2(c3ccccc3)OC(=O)c3ccccc32)c(C)c1 (stereo unspecified)	-14%
COc1ccc(-n2c(SCC(N)=O)nnc2-c2ccccc2F)cc1	6%
Cc1ccc(N(CC(O)CN2CCCC2)S(=O)(=O)c2ccc(C)cc2)cc1 (stereo unspecified)	-3%
COc1ccc(NC(=O)Nc2cccc(C)n2)cc1	?
CN1CCN(c2ncc3nc(-c4ccccc4)c(=O)n(Cc4ccc(F)cc4)c3n2)CC1	6%
FC(F)(F)c1nnc2ccc(N3CCCCC3)nn12	-11%
CCN(CC)S(=O)(=O)c1ccc(C(O)=C(C#N)c2nc3ccccc3n2C)cc1	14%
COc1ccc2[nH]cc(C(=O)CN3CCN(C(=O)c4ccco4)CC3)c2c1	7%
O=C(NCCCN1CCOCC1)c1ccc2c(=O)n(Cc3cccc(Br)c3)c(=S)[nH]c2c1	-2%
COc1cc(/C=C/C(=O)OCC(=O)NCCCc2ccccc2)ccc1O	-3%
CCOc1ccc(NC(=S)N2CCC(NC(=O)c3ccccc3)CC2)cc1	2%
O=[N+]([O-])c1ccc2nc(-c3ccccc3)n(OCc3ccc(Cl)cc3)c2c1	0%
CN(Cc1cnccn1)C(=O)C1CCC(=O)N(CCc2ccc(Cl)cc2)C1 (stereo unspecified)	-11%
S=C(NCc1ccco1)NCC(c1ccco1)N1CCCCC1 (stereo unspecified)	?
COc1ccc(NC(=O)CCNS(=O)(=O)c2ccc(Cl)c([N+](=O)[O-])c2)cc1S(N)(=O)=O	1%
CCS(=O)(=O)c1nc2ccccc2n1CC(=O)N1CCCCC1	-12%
CCOC(=O)C1(CCOc2ccccc2)CCN(C(=O)c2ccc(-n3cccn3)cc2)CC1	18%
COc1cc(OC)cc(C(=O)OCCCOC(=O)c2cc(OC)cc(OC)c2)c1	6%
O=C(Nc1cccc(Cl)c1)c1ccc(NCCCN2CCOCC2)c([N+](=O)[O-])c1	11%
COC(=O)c1c(NC(=S)NNS(=O)(=O)c2ccc(OC)cc2OC)sc2c1CCCCCC2	-4%
COc1ccc(/C=N/Nc2nccnc2Cl)cc1	-4%
Cc1cc(C(=O)NN=C2CCCCCC2)c(C)o1	-6%
CCC(=O)NC(=S)Nc1ccc(NC(=O)c2ccco2)c(OC)c1	7%
COc1ccccc1N(C)S(=O)(=O)c1ccc(C(=O)OCC(=O)NCCC2=CCCCC2)cc1	7%
CCC(C)(C)n1nnnc1C(C(C)C)N(Cc1cccnc1)Cc1ccco1 (stereo unspecified)	-2%
COc1ccc2c(c1)CC(C(=O)NCCCN1CCN(c3ccccc3F)CC1)CO2 (stereo unspecified)	-4%
COc1ccc(-n2cc(CN(C)Cc3n[nH]c(=O)[nH]3)c(-c3cccc(F)c3)n2)cc1	-19%

Three structures out of the list, arranged by formula weight, smallest number first:
Structure	VDR inh
CCC(=O)NC(=S)Nc1ccc(NC(=O)c2ccco2)c(OC)c1	7%
CCC(C)(C)n1nnnc1C(C(C)C)N(Cc1cccnc1)Cc1ccco1 (stereo unspecified)	-2%
COc1ccc(-n2cc(CN(C)Cc3n[nH]c(=O)[nH]3)c(-c3cccc(F)c3)n2)cc1	-19%
